A1 inh = inhibitors of the anti-apoptotic protein A1, read as caspase activation; MEF A1-2A-BIM cells, Caspase-Glo 3/7 luminescence, 3 h; percent of clofoctol response, vehicle zero; 330,000 compounds, 0.066% hits; AID 2462; caspase activation, % (no concentration beside the values);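 active = over half of replicate activation scores above 10%, or exactly half above 10 with the replicate mean above 10; inconclusive = replicate mean below 10 yet half the replicates above 10; inactive = over half of replicates below 10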;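 note: wells of about 30 µL received 50 nL stock; many hits fall short of the cut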
T cruzi inh = blocks replication of Trypanosoma cruzi; T. cruzi beta-gal in NIH3T3, luminescence, 90 h; inhibition, % (test concentration not listed); 300,000 compounds, 1.4% hits;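 active = mean inhibition across valid replicates above about 55%, limit read from the data; inconclusive = mean below that limit but half or more replicates reach it; inactive = mean below it, under half of replicates reach it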;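 note: signal also drops with host cell toxicity which is not excluded here; 0% = plate median of DMSO wells and 100% = zero luminescence signal; higher percent means less beta-gal luminescence so fewer parasites; stock transfer was 50 nL into about 50 µL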
Beta cell apopt = blocks beta cell apoptosis | AID 435005 | protection from apoptosis, % (no concentration beside the values) | 300,000 compounds, 0.8% hits | INS-1E cytokine-induced death, ATP luminescence, 48 h; percent of positive-control rescue, neutral wells zero;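 active = all replicates at 75% or more, or half of them and the mean; inconclusive = half reach 75% but not the mean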;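 note: 0% = cytokine-treated negative control wells and 100% = positive control rescue; higher means more ATP so stronger rescue from cytokine killing; wells of about 40 µL received 100 nL stock; the first replicate is given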
AF4-AF9 inh = inhibitors of human MLL-AF4/AF9 interaction; P42568; AlphaScreen, biotin-AF4 peptide binding to FLAG-AF9; inhibition, % at 10 µM; 350,000 compounds, 0.47% hits; AID 651704;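 active = every replicate reaching a set inhibition limit, whatever the replicate mean, cut at about 25% in these data; inconclusive = mean inhibition reaches that limit but some replicates miss it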;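 note: 0% = plate neutral control median and 100% = total signal loss; the record names both 10 and 1 µM as test concentration; the first replicate is given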
Vif TR-FRET = HIV-1 Vif–A3G interaction blockers – biochemical, TR-FRET, GST-Vif 1-94, biotin-A3G peptide, dose response retest, primary screen (AID 1117319) | TR-FRET GST-Vif / biotin-A3G peptide binding; higher % means a stronger effect; test concentration not given here; strong numbers were not always called active | inhibition, %, or IC50 in µM where a hit was titrated | 260,000 compounds, 0.57% hits;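 active = above the screen mean plus three standard deviations and confirmed in dose response; inconclusive = results disagree or hit not tested in dose response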;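 note: Vif residues 1-94 fused to GST binding biotinylated APOBEC3G peptide 110-148; 0% = full assay without inhibitor and 100% = GST in place of GST-Vif; retest series ran down from 100 µM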
Calb FLC = C. albicans growth modulation with fluconazole. AID 1979. 300,000 compounds, 0.57% hits. C. albicans CaCi-2 (fluconazole-resistant clinical isolate) + fluconazole, Alamar Blue growth, 48 h. growth inhibition, % (no concentration beside the values);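 active = most replicates above 75%; inconclusive = exactly half above 75%; inactive = most below 75%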;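 note: all wells also contain fluconazole at 8 µg/ml as a sub-toxic cotreatment; 0% = median of DMSO wells and 100% = median of geldanamycin control wells; wells of about 8 µL received 7.5 nL stock; the first replicate is given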
RanGTP-Imp inh = inhibitors of RanGTP-importin-beta interaction, primary screen, biochemical, FRET, CFP-Ran, YFP-importin-beta, homogeneous | cell-free CFP-Ran/YFP-importin-beta FRET ratio | inhibition, % (no concentration beside the values) | 300,000 compounds, 1.1% hits | AID 2216;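 active = most replicates above 15%; inconclusive = exactly half above 15%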;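 note: 0% = DMSO wells and 100% = Ran loaded with GDP instead of GTP; wells of about 40 µL received 100 nL stock; the first replicate is given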
LANA-H2A inh = blocks KSHV LANA binding to histone H2A/H2B. 320,000 compounds, 0.6% hits. cell-free LANA-H2A/H2B peptide, fluorescence polarization. inhibition, % (no concentration beside the values). Q9QR71; in the data active = inhibition mostly above about 10%, no sharp cut-off; inactive = mostly below about 6.7%;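 note: stock transfer was 7.5 nL into about 10 µL; 0% = median of vehicle wells and 100% = median of positive control wells; one replicate is shown; the record names a cut of 25% in any replicate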
Target sequence (Q9QR71 whole entry, looked up): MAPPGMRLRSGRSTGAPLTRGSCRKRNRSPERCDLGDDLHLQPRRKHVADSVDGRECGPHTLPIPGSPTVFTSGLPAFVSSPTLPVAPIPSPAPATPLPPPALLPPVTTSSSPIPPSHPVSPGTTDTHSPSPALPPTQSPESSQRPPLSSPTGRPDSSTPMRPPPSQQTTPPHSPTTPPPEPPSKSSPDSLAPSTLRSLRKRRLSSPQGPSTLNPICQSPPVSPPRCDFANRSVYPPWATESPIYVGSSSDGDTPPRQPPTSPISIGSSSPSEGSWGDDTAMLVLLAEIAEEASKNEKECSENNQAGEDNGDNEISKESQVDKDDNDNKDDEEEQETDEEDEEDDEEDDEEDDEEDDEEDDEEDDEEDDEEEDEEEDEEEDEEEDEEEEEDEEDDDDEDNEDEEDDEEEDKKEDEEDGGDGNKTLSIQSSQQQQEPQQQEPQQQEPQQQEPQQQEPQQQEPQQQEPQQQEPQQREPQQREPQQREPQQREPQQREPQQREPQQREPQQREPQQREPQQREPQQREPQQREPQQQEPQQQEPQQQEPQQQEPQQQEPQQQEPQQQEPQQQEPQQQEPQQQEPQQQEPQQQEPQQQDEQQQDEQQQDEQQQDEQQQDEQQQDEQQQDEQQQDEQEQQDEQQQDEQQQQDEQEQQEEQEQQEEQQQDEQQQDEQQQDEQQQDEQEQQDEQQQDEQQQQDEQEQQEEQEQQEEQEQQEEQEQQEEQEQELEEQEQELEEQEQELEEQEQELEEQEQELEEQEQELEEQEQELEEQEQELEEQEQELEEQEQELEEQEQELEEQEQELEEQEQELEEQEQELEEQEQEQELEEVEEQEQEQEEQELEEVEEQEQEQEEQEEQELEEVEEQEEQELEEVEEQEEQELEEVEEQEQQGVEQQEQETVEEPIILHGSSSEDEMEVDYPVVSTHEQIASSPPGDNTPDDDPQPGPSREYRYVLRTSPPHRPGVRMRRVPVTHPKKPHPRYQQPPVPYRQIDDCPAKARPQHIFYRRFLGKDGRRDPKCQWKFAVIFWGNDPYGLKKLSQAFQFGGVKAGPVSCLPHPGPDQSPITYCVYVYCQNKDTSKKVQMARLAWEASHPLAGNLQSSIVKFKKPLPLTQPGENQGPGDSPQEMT
* = called active by the depositor; ? = inconclusive; . = not tested or not shown; & = joins results of further samples.

| mol | A1 inh | T cruzi inh | Beta cell apopt | AF4-AF9 inh | Vif TR-FRET | Calb FLC | RanGTP-Imp inh | LANA-H2A inh |
| --- | --- | --- | --- | --- | --- | --- | --- | --- |
| C=C(C)c1cccc(C(C)(C)NC(=O)N2CCN(c3ccccc3)CC2)c1 | 1.0 | 10 | 6 | 0.0 | -2% | 1 | -1.5 | -2.4 |
| COc1cccc(C(=O)/C=C/Nc2ccc(S(=O)(=O)Nc3cccc(C(C)=O)c3)cc2)c1 | 0.2 | 4 | 16 | . | -6% | 1 | 5.1 | 1.6 |
| CCOC(=O)C1CCCN(Cc2nc(N)nc(Nc3ccc(Cl)cc3)n2)C1 (stereo not given) | -0.8 | -7 | -5 | . | 6% | -2 | 0.0 | 0.1 |
| COc1c(OC)c2[nH]c(=O)cc3c4ccccc4n(c1=O)c23 | 0.8 | -20 | -1 | -2.5 | . | 0 | 157* | 2.3 |
| Cc1nn2c(N)c(-c3ccccc3)cnc2c1-c1ccc(Cl)cc1 | 0.7 | 31 | 0 | -3.6 | -8% | 5 | -3.0 | -0.9 |
| COc1ccc(OCCCN(C)Cc2ccccc2)cc1 | 0.4 | 53 | . | -5.3 | . | 1 | -0.6 | -1.2 |
| Clc1ccc(-c2c[n+](Cc3ccc(Cl)cc3Cl)c3n2CCCCC3)cc1 | 0.4 | 15 | 52 | 2.5 | 7% | 1 | -0.9 | -1.4 |
| C/C(=N/NC(=O)CSc1nc2ccccc2n1C)c1ccncc1 | -0.1 | 4 | 1 | -0.8 | -10% | -19 | 2.5 | -0.4 |
| C=CCn1c(SCC(N)=O)nc2scc(-c3ccc(C)o3)c2c1=O | -0.2 | -33 | -4 | -2.1 | -11% | 0 | -1.6 | -2.5 |
| c1ccc(C2[C@H]3CN(CC4CCCCC4)[C@H](c4ccccc4)C34CC2(c2ccccc2)C4)cc1 (stereo not given in full) | -0.7 | 26 | 4 | 5.8 | 5% | -16 | -0.7 | -3.3 |
| CCOc1c2ccc(C(=O)NCC34CC5CC(CC(C5)C3)C4)cc2nn1CC | 0.4 | -3 | 0 | 5.2 | -1% | -10 | 3.0 | -3.0 |
| O=C(O)c1nn(-c2ccccc2C(F)(F)F)cc1O | 0.5 | -31 | -1 | 8.6 | . | ? | 0.8 | 1.2 |
| CSc1ccc(S(=O)(=O)NCc2ccc(C)cc2)cc1 | 0.7 | -5 | -1 | . | 9% | -21 | -0.2 | -0.7 |
| Cc1cc2nc(-c3ccc(NC(=O)C(C)C)cc3)oc2cc1C | -6.4 | 6 | 10 | . | -4% | 3 | 0.4 | 1.5 |
| COc1ccc(CNC(=O)[C@H](C)NC(=O)[C@@H]2Cc3ccccc3CN2)cc1 | 0.0 | 1 | -2 | -2.3 | 6% | -10 | 2.3 | -2.5 |
| Cc1cc(C)cc(NC(=O)C2C3C=CC(O3)C2C(=O)O)c1 (stereo not given) | 1.1 | -11 | -4 | 1.4 | . | -3 | -4.0 | -0.2 |
| Cc1cc(Oc2ccc(-c3ccccc3)cc2)n2ncnc2n1 | 0.1 | 31 | -5 | . | 77% | -14 | 0.7 | -3.7 |
| COc1ccc(CCN(C)C/C=C/c2ccccc2)cc1OC | 1.2 | 49 | -2 | 6.9 | . | 11 | -3.4 | 4.2 |
| COc1ccc(S(=O)(=O)N2CCOCC2)cc1NC(=O)CCCOc1ccc(Cl)cc1C | 0.8 | . | 5 | 5.3 | . | . | . | 3.1 |
| C/C(=N\NC(=O)COc1cccc(C)c1)c1ccc2ccccc2c1O | 0.9 | . | -2 | -0.2 | . | -21 | . | -3.7 |

2 compounds drawn at random from the list so far, as already listed:
| mol | A1 inh | T cruzi inh | Beta cell apopt | AF4-AF9 inh | Vif TR-FRET | Calb FLC | RanGTP-Imp inh | LANA-H2A inh |
| --- | --- | --- | --- | --- | --- | --- | --- | --- |
| Cc1cc(C)cc(NC(=O)C2C3C=CC(O3)C2C(=O)O)c1 (stereo not given) | 1.1 | -11 | -4 | 1.4 | . | -3 | -4.0 | -0.2 |
| COc1ccc(CCN(C)C/C=C/c2ccccc2)cc1OC | 1.2 | 49 | -2 | 6.9 | . | 11 | -3.4 | 4.2 |

Next records follow.
| mol | A1 inh | T cruzi inh | Beta cell apopt | AF4-AF9 inh | Vif TR-FRET | Calb FLC | RanGTP-Imp inh | LANA-H2A inh |
| --- | --- | --- | --- | --- | --- | --- | --- | --- |
| C/C(=N\NC(=O)C(=O)Nc1c(C)n(C)n(-c2ccccc2)c1=O)c1ccc(Cl)s1 | -0.3 | 3 | -23 | -5.8 | -8% | 0 | 26 | 2.4 |
| CCOc1ccccc1N(CC(=O)N1CCCC1)S(C)(=O)=O | -1.8 | -8 | -4 | -4.2 | -11% | 1 | -0.6 | -3.9 |
| CN1CCN(c2nc(-c3ccccc3)ncc2S(C)(=O)=O)CC1 | 1.0 | 14 | 3 | 2.2 | . | -4 | 7.1 | 9.1 |
| COc1ccc(CN(CCC#N)CCC2(c3ccccc3)CC(C)N(C)CC2C)cc1OC (stereo not given) | -1.1 | 1 | -2 | 6.5 | 4% | 2 | 2.0 | -4.1 |
| O=C1c2cccc3cccc(c23)C(=O)N1OS(=O)(=O)c1ccccc1 | 0.6 | -5 | -6 | . | -34% | 8 | 2.8 | -0.1 |
| COC(=O)c1cc(NC(=O)/C=C/c2ccc3c(c2)OCO3)cc(C(=O)OC)c1 | 0.1 | -9 | 10 | . | 2% | 0 | 0.4 | -3.0 |
| CCc1ccccc1N(CC(=O)NCC1CCCO1)C(=O)CCC(=O)Nc1nccs1 (stereo not given) | 0.9 | -3 | 3 | 1.3 | . | 6 | 0.5 | 5.5 |
| CCOC(=O)c1cc2c(s1)-c1c(C)cccc1OC2 | -0.6 | -11 | 6 | -2.1 | 6% | 2 | -4.5 | 3.3 |
| COc1ccc(-c2noc(-c3cccs3)n2)cc1OC | -4.3 | 14 | -1 | 0.5 | 14% | -11 | -0.1 | -2.3 |
| COc1ccc(N2CCC(CNC(=O)Nc3ccccc3)C2)cc1 (stereo not given) | 0.4 | -9 | -4 | . | 9% | -7 | -4.6 | -5.7 |
| COc1ccc(Nc2nc(-c3sc(C)nc3C)cs2)c(OC)c1 | -0.9 | -26 | . | 4.6 | -6% | -36 | -5.1 | -4.3 |
| O=C(CNC(=O)c1ccco1)NCC(=O)OCc1ccccc1Br | 0.6 | -14 | -4 | . | -5%&-2% | -8 | 1.6 | -0.5 |
| CCc1ccc(/C=C2/Sc3ccccc3N(CC(=O)NCC3CCCO3)C2=O)cc1 (stereo not given) | -1.1 | -6 | . | 3.9 | 1% | 11 | 7.0 | -1.9 |
| COc1ccc2c(C)nc(Nc3nc(-c4ccccc4)cc(=O)[nH]3)nc2c1 | 0.4 | 37 | 35 | 0.5 | -4% | 7 | 6.6 | -2.9 |
| Cc1cccc(C(=O)OCC(=O)NN2C(=O)NC3(CCC(C)CC3)C2=O)c1O (stereo not given) | -0.4 | -9 | -6 | -55 | -1% | . | 1.9 | 3.1 |
| COc1ccc(CCN2C(=O)C(Oc3ccccc3C)C2c2ccc3c(c2)OCO3)cc1OC (stereo not given) | 0.1 | -4 | 2 | . | -3% | -6 | 8.0 | 2.0 |
| O=C(Nc1cccc(C(F)(F)F)c1)c1cccnn1 | -1.0 | 3 | -1 | 0.0 | 5% | -2 | 2.3 | 4.0 |
| Cc1nc(CCNC(=O)CC2C(=O)NCCN2Cc2ccccc2)nc2c1CCC2 (stereo not given) | -0.1 | -9 | -5 | 1.4 | . | -3 | -1.0 | 2.3 |
| CCOC(=O)C1CCN(C(=O)C2CCCCC2)CC1 | 1.2 | 5 | 0 | . | -6% | 25 | -1.2 | 1.2 |
| CC(C)CCNC(=O)C(=O)NCc1ccccc1 | 0.0 | 1 | -2 | . | 22% | -3 | -0.7 | 6.9 |
| Cc1ccc(-n2[nH]c(C)c(C=NCc3ccncc3)c2=O)cc1 | -1.2 | -3 | 22 | 5.8 | 8% | -2 | -1.5 | -2.4 |
| COc1ccc(N(C)C(=O)C2CCN(S(=O)(=O)c3cccc4nsnc34)CC2)cc1 | 0.1 | 18 | -5 | 0.5 | . | 6 | -0.7 | -2.0 |
| CN1CCN(c2cc(=O)n(C3CCCCC3)c(=O)[nH]2)CC1 | -0.2 | 4 | -4 | -1.0 | 1% | -1 | 10 | 1.9 |
| CCOc1ccc(NS(=O)(=O)c2ccc3[nH]c(=O)cc(C(=O)O)c3c2)cc1 | 1.0 | -35 | -4 | -11 | 9% | 8 | . | 0.0 |
| Cc1ccc(SCc2cc(=O)n3[nH]cnc3n2)cc1 | -3.4 | 1 | . | . | -2%&1% | 10 | 3.7 | -2.3 |
| CC(=O)c1cccc(NC(=O)Nc2ccc3c(c2)N(C)C(=O)CS3)c1 | 0.9 | -9 | 0 | . | -5% | -15 | 0.6 | 2.3 |
| Nc1c(-c2ccccc2)c(CSc2nc3ccccc3[nH]2)nn1-c1ccc(Cl)cc1 | 0.2 | 64* | 7 | 1.6 | . | 3 | -2.6 | -1.5 |
| CCN1C(=O)CC(C(=O)Nc2ccc(F)cc2)SC1=Nc1cccc(OC)c1 (stereo not given) | -0.6 | 8 | -4 | . | -5% | 3 | 2.3 | 4.1 |
| COC(=O)c1cc(S(=O)(=O)NCC2CCN(Cc3ccc(F)cc3)CC2)c[nH]1 | 0.7 | 9 | 2 | 2.2 | . | 9 | 0.7 | -6.1 |
| Cn1c(-c2ccccc2)c(C(=O)CC#N)c2ccccc21 | 0.7 | -1 | -3 | -2.1 | -6% | 58 | 1.4 | 1.0 |
| COc1cccc(-c2csc(NNC(=O)c3cccs3)n2)c1 | -4.4 | -26 | 0 | 4.5 | . | 3 | 2.3 | -1.5 |
| c1ccc2cc(CCCc3cc4ccccc4cn3)ncc2c1 | -1.6 | . | -10 | -0.9 | . | . | . | 2.2 |
| COc1cc(C(F)(F)F)c(C(=O)N(C)Cc2cc(Cl)cc(Cl)c2)cn1 | -0.2 | 14 | -3 | 0.3 | -9% | -3 | 1.9 | -2.4 |
| O=C(NCCN1CCCC1=O)C1CCC(=O)N(CCc2ccc(Cl)cc2)C1 (stereo not given) | -0.3 | -21 | -7 | -0.9 | . | 1 | 4.5 | -1.8 |
| CCOc1ccc(-c2nnc(-c3ccncc3)o2)cc1OCC | 0.2 | -1 | -6 | -0.8 | 3% | 22 | -2.0 | 12 |
| CCC(=O)Nc1ccc2c(c1)ncn2-c1ccccc1 | 0.8 | 12 | -9 | . | -4% | -11 | 1.8 | -1.9 |
| CCN(CC)c1ccc(NC(=O)CSc2nc3nc(C)cc(C)c3c(=O)[nH]2)cc1 | 0.3 | 3 | -1 | -10 | -1% | -7 | -3.2 | . |
| NC(=O)CSc1nc2sc(-c3ccccc3)cc2c(=O)n1N | -0.2 | 3 | -6 | . | 0% | -2 | ? | 7.5 |
| Nc1cc2nc[nH]c2cc1N | . | 3 | . | 2.3 | . | 25 | -3.7 | . |
| O=C(CSc1nnc(Cc2cc(=O)[nH]c(=O)[nH]2)n1-c1ccc(F)cc1)N1CCCCC1 | 0.7 | -10 | -1 | -2.6 | 3% | 9 | 3.7 | 1.5 |

Screens as filed in PubChem BioAssay.
